Source: PubChem
Mtb growth: M. tuberculosis H37Rv growth inhibitors, H37Rv strain (AID 1626); M. tuberculosis H37Rv growth inhibition; higher % means a stronger effect; inhibition, % at 10 µM; hits with a dose series show IC50 in µM; 0.95% of 220,000 active;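 active = confirmed in a dose series; inconclusive = inhibition above 80% but not taken into the dose series; inactive = below 80% or under 30% at every dose of the series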;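 note: bacteria incubated seven days before Alamar blue readout; 0% = bacteria only wells and 100% = bacteria with antibiotic wells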
Mtb bLac sens: beta-lactam sensitization of Mtb H37Rv. AID 434955. inhibition, % at 25 µM. 0.27% of 330,000 active. M. tuberculosis H37Rv growth with meropenem, percent inhibition; hits of this screen are not shown here;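 active = about 74% or more and at least 40 points above the plate without the antibiotic, then above 30% in a dose series; inconclusive = first-round hits that could not be retested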;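 note: growth measured after seven days incubation then overnight dye step; 0% = bacteria only wells and 100% = bacteria with antibiotic; twin plates without the antibiotic show which effects depend on it; some results filed as inactive read as strong as hits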
YopH inh: blocks Yersinia enterocolitica YopH tyrosine phosphatase. fluorescence Ex485/Em525. inhibition, %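 (about 10 µM by stock and volumes)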. 0.16% of 140,000 active. AID 898;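 active = inhibition of 50% or more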;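 note: controls were vehicle for no effect and minimum signal wells for full effect; inactives centre near -20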
RecA intein inh: Mtb RecA intein splicing inhibition; P9WHJ3; cell-free RecA intein splicing, fluorescence; inhibition, %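 (about 9 µM by stock and volumes)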; 0.75% of 290,000 active; AID 2221; in the data active = inhibition above about 30%; inconclusive = no clear call, values can overlap the other calls;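 note: 0% = vehicle wells and 100% = reference inhibitor control wells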
Target sequence (P9WHJ3 whole entry, looked up): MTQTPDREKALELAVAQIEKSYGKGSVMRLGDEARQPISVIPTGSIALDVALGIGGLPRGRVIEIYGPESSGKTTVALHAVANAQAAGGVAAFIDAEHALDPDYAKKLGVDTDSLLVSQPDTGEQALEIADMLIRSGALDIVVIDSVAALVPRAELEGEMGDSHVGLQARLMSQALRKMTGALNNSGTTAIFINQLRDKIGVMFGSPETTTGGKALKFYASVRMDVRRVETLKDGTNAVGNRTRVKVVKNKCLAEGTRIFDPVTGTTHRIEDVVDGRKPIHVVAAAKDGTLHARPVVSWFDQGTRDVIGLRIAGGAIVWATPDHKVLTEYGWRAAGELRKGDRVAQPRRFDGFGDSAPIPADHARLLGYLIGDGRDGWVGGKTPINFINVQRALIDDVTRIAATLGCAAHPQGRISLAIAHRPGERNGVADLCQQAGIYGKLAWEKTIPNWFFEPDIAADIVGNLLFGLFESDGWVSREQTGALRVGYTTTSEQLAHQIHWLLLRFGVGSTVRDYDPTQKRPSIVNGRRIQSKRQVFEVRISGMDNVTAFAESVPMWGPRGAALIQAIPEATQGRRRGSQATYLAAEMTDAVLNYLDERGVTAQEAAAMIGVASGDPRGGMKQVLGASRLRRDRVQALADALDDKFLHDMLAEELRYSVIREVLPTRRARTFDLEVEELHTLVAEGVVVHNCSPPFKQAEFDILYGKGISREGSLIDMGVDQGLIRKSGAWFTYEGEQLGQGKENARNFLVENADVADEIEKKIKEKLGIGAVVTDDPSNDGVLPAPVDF
Arbovirus anti: arbovirus infection inhibition | 0.37% of 200,000 active | arbovirus infection cell-based antiviral screen | inhibition, % at 10 µM;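 active = inhibition from about 30%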;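 note: bluetongue infection of BSR cells; cell survival read as ATP light after 72 h; 0% = infected wells without compound and 100% = uninfected wells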
Arbovirus anti repeat: also measured in Arbovirus anti; calls as there; inhibition, %; measured here: 10K subset replicate screen; many hits read low in the repeat;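 first of two repeat runs on a subset; 0% = infected and 100% = uninfected wells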
The depositor's hits bear a star; ? = inconclusive; . = not tested or not shown. Some of the compounds tested, so the mix of outcomes need not match the whole.

SMILES	Mtb growth	Mtb bLac sens	YopH inh	RecA intein inh	Arbovirus anti	others
CC(=O)Nc1ccc2c(CSc3nnc(-c4cccnc4)n3-c3ccc(C)cc3C)cc(=O)oc2c1	-6%	2	-35	1.4	0
CC1=C(C(=O)OCc2ccc3c(c2)OCO3)C(c2ccccc2)NC(=O)N1 (stereo unspecified)	-3%	14	-46	1.0	4	Arbovirus anti repeat=-8
COC(=O)c1c(NC(=O)CN2CCN(c3ccccc3OC)CC2)c2c(C)cccc2n1C	-2%	.	-15	.	14
Cc1cc(C)nc(SCCC(=O)Nc2ccc(F)cc2)n1	-3%	-6	.	-2.0	11
O=C(CCc1ccc(O)cc1)N1C[C@H]2C[C@@H](C1)c1cccc(=O)n1C2	.	-5	.	2.2	.
Cc1ccc(CNC2CCCCC2)s1	.	2	.	0.3	.
NC(=O)C1CCN(c2nc(-c3ccccc3)nc3c2oc2ccccc23)CC1	1%	.	-2	.	-16
Cn1c(SC/C=C/c2ccccc2)nnc1-c1cnccn1	0%	-6	-21	1.4	5
CN1C(=O)CSC1=NC12CC3CC(CC(C3)C1)C2	2%	0	-3	1.0	4
C=CCNC(=S)NCC1COc2ccccc2O1 (stereo unspecified)	6%	6	-32	1.5	-8
O=C(CSc1ncccn1)N1CCC(Cc2ccccc2)CC1	-2%	1	.	-0.1	-12
COC(CNc1ccc([N+](=O)[O-])c(NCC(OC)OC)c1C#N)OC	-5%	0	.	2.6	.
Cc1cc(C)c(C)c(OCCN2CCOCC2)c1	.	-1	.	0.7	.
O=C(NCCc1ccccc1)[C@@H]1CC=C[C@@H]2CCN(Cc3ccc(Cl)c(Cl)c3)C(=O)[C@@H]21	12%	93	.	14	.
CCCOc1ccc(C(=O)NCC(C)(C)N2CCOCC2)cc1	-1%	-5	.	-6.3	22
Cn1cc([N+](=O)[O-])c(C(=O)N/N=C/c2ccccc2)n1	0%	-9	-17	-5.6	0
O=C(CCn1c(=O)c2sccc2n(Cc2cc(=O)n3ccccc3n2)c1=O)NCc1ccco1	-6%	-4	-36	0.5	6
O=C(O)c1ccc(OCC(O)Cn2c3ccccc3c3ccccc32)cc1 (stereo unspecified)	3%	4	.	1.3	.
CSc1ccc(/C=N/NC(=O)c2ccccc2Cl)cc1	2%	8	.	1.5	-7
Cc1nc(-c2cccc(-c3noc(C)n3)c2)no1	-3%	-5	-26	1.2	5
CC(=O)NN1C(=O)/C(=C\c2ccc(Br)o2)SC1=S	-3%	-6	-41	-1.2	5
CC(=O)Nc1ccc(S(=O)(=O)N2CCC3(CC2)CC(=O)c2ccccc2O3)cc1	.	-10	.	0.0	.
COc1cc([N+](=O)[O-])cc([N+](=O)[O-])c1NC(=O)N1CCOCC1	.	2	.	-0.7	.
CC1CN=C(NCc2ccccc2Cl)S1 (stereo unspecified)	.	-2	.	-3.2	.
CSC(=O)CC(=O)NC(=O)c1ccccc1	-3%	-2	-81	-0.7	1
COc1ccccc1N1C(=O)C2CC=CC(C)C2C1=O (stereo unspecified)	-9%	9	-25	.	9	Arbovirus anti repeat=5
O=C(CCN1C(=O)[C@@H]2Cc3ccccc3CN2C1=O)N[C@@H](Cc1ccccc1)C(=O)O	.	-3	.	-1.2	.
O=C(Nc1c(C(=O)N2CCOCC2)cnn1-c1ccccc1)c1ccccc1	1%	-6	-31	1.0	4
CC(C)=CCc1c(O)c(CC=C(C)C)c2occ(-c3ccc(O)cc3)c(=O)c2c1O	16%	-4	.	3.6	.
O=C(COCc1cc(-c2ccc3c(c2)OCO3)on1)N1CCN(c2cccc(C(F)(F)F)c2)CC1	.	?	.	2.1	.

Already shown: an excerpt of the list.
SMILES	Mtb growth	Mtb bLac sens	YopH inh	RecA intein inh	Arbovirus anti	others
Cn1cc([N+](=O)[O-])c(C(=O)N/N=C/c2ccccc2)n1	0%	-9	-17	-5.6	0
O=C(CCn1c(=O)c2sccc2n(Cc2cc(=O)n3ccccc3n2)c1=O)NCc1ccco1	-6%	-4	-36	0.5	6
O=C(O)c1ccc(OCC(O)Cn2c3ccccc3c3ccccc32)cc1 (stereo unspecified)	3%	4	.	1.3	.

(continued)
SMILES	Mtb growth	Mtb bLac sens	YopH inh	RecA intein inh	Arbovirus anti	others
CCCC(=O)C1=C(N2CCCCC2)CC(C)(C)C(C(=O)OC)C1=O (stereo unspecified)	2%	4	.	-2.2	0
CCc1nnc(NC(=O)C2CCCN2C(=O)Nc2ccccc2OC)s1 (stereo unspecified)	-4%	?	-1	-0.4	13
Cc1ccc(S(=O)(=O)n2cc(C=O)c3ccccc32)cc1	-3%	-3	.	1.4	.
O=c1[nH]cc(S(=O)(=O)c2ccccc2)[nH]1	4%	-2	.	-0.2	0
CCOc1cc(N2CCOCC2)c(OCC)cc1NC(=O)C1=NN(c2cccc(C)c2)C(=O)CC1	0%	92	.	-2.1	-20
COc1ccc(C(=O)COC(=O)C(C(C)C)N2C(=O)C3C4C=CC(C4)C3C2=O)cc1 (stereo unspecified)	-4%	-4	-14	2.4	6
COC(=O)[C@H](CCSC)NC(=O)NCc1cccs1	-8%	-8	-45	0.6	0
O=C(CNC(=O)c1cccc(OC(F)F)c1)OCc1cc(=O)n2cc(Br)ccc2n1	2%	2	-14	-1.7	-2
Cc1ccc2nc(SCC(=O)N3CCC(C)CC3)nc(=O)n2c1	.	-8	.	0.9	.
O=C(CN(c1ccccc1)S(=O)(=O)c1ccccc1)NCCSCc1ccco1	2%	-1	-29	1.0	-1
CCCCCn1c(CN2CCN(C(=O)OCC)CC2)nc2c1c(=O)n(C)c(=O)n2C	3%	5	-1	-1.0	.
Cc1ccc(CN2CCN(CC(=O)N=Nc3c(O)[nH]c4ccccc34)CC2)cc1	-3%	9	-29	-1.4	-2
COCCNC(=O)c1ccccc1NC(=O)c1ccc(Cl)c(S(=O)(=O)Nc2ccc(C)cc2C)c1	1%	-5	-31	10	-14
COc1cc(NC(=O)COc2ccccc2Cl)ccc1NC(=O)c1cccs1	.	-5	.	-1.4	.
CCCCn1c(CNC(=O)c2cccs2)nc2ccccc21	3%	-2	-17	-3.5	2	Arbovirus anti repeat=-3
Nc1ccc[n+](Cc2ccccn2)c1	-4%	-4	-36	13	2
O=C(COC(=O)C1(c2ccc(F)cc2)CCCC1)N1CCOCC1	0%	-1	-23	2.0	6
On1c(-c2ccccc2)nc2ncccc21	.	0	.	-0.7	.
Cc1ccc(O)c(C(=O)c2cc(C#N)c(=O)n(-c3c(C)n(C)n(-c4ccccc4)c3=O)c2)c1	-1%	-5	-98	0.4	2
Cn1nc(C(=O)OCCN2C(=O)c3ccccc3C2=O)c2ccccc2c1=O	7%	41	-13	0.1	5
Cc1ccc(S(=O)(=O)N2CCN(C(=O)CSc3nccn3C)CC2)cc1	-2%	-2	.	-0.7	.
COc1ccc(C(=O)Nc2ccc(NC(=O)CSc3nnc(-c4ccncc4)n3C)cc2)cc1	.	-3	.	3.4	.
COC(=O)c1cc2ccsc2n1CC(=O)NCC1CCCO1 (stereo unspecified)	-6%	1	-44	.	3
COC(=O)c1c(NC(=O)CSc2ncn[nH]2)sc(C)c1C	.	-7	.	-3.9	.
c1ccc2c(NC3=NCCS3)cccc2c1	1%	13	-20	3.3	-1
O=C(COc1coc(CN2CCc3ccccc3C2)cc1=O)Nc1ccc(Cl)cc1	.	-8	.	-0.6	.
Cc1c(Br)c([N+](=O)[O-])nn1C(C)C(=O)NCC1CCCO1 (stereo unspecified)	-3%	2	.	-7.3	1
CN(CC(=O)N1CCc2ccccc21)S(=O)(=O)c1cccc2cccnc12	-4%	5	-39	.	1	Arbovirus anti repeat=-3
O=C(Nc1nc2cc3c(cc2s1)OCCO3)C1=COCCO1	1%	-2	.	0.5	.
CC(C)Cc1csc(NC(=O)c2ccc(Cl)cc2)c1C(=O)O	2%	8	4	2.0	22

Among those listed so far, 2 contain a cyano group.
SMILES	Mtb growth	Mtb bLac sens	YopH inh	RecA intein inh	Arbovirus anti	others
COC(CNc1ccc([N+](=O)[O-])c(NCC(OC)OC)c1C#N)OC	-5%	0	.	2.6	.
Cc1ccc(O)c(C(=O)c2cc(C#N)c(=O)n(-c3c(C)n(C)n(-c4ccccc4)c3=O)c2)c1	-1%	-5	-98	0.4	2

Following part
SMILES	Mtb growth	Mtb bLac sens	YopH inh	RecA intein inh	Arbovirus anti	others
COc1ccc2oc(C(=O)N3CCCc4ccccc43)c(C)c2c1	.	4	.	11	.
Cc1c(NS(=O)(=O)c2cc(C(=O)O)ccc2Cl)c(=O)n(-c2ccccc2)n1C	.	1	.	-0.7	.
CCOc1ccccc1NC(=O)COC(=O)C(CC(C)C)N1C(=O)C2CC=CCC2C1=O (stereo unspecified)	-8%	3	-38	4.5	-4
O=C(CSC1=NC(=O)C(c2ccccc2)C(=O)N1)Nc1ccccc1Cl (stereo unspecified)	23%	99	-16	2.9	3
CCN(CC(=O)Nc1ccc(NC(C)=O)cc1)C(=O)c1cccnc1Sc1ccc(C)c(C)c1	.	3	.	1.6	.
CCOC(=O)C1CCCN(C(=O)c2cn(C)c3ccc(S(=O)(=O)N(C)C)cc3c2=O)C1 (stereo unspecified)	-3%	10	-43	.	6	Arbovirus anti repeat=5
Cc1nn(-c2ccccn2)c2c1C(=O)CC(C)(C)C2Br (stereo unspecified)	-3%	-2	.	-1.6	.
CCn1c(CS(=O)Cc2ccc(Cl)cc2Cl)nnc1SCc1c(Cl)cccc1Cl (stereo unspecified)	-2%	0	-27	-0.3	-9
O=C(COC(=O)CCc1c[nH]c(=O)[nH]1)Nc1ccccc1	-3%	?	-6	1.6	-2
C#CCOCCOCCOCCNc1nc(N2CCOCC2)nc(N2CCN(C(=O)Cn3cc(CCCN=C(N)N)nn3)CC2)n1	-14%	-10	-20	0.3	2
COc1ccc(N/C=C2/CCCCC2=O)cc1	67%	95	-19	0.8	-11
CCC(CC)C(=O)NCCc1cc2ccc(OC)cc2[nH]c1=O	.	1	-25	0.4	14
CCN(CC(=O)Nc1ccccc1C(F)(F)F)C(=O)c1oc2c(Cl)cccc2c1C	.	5	.	-1.1	.
COc1ccccc1C1CCN(Cc2cccc3ccccc23)CC1	.	5	.	-3.4	.
CC(=O)N1CCOc2ccc(S(=O)(=O)N3CCC(C)CC3)cc21	.	-3	.	0.0	.
O=C(Nc1ccc(S(=O)(=O)N2CCc3ccccc32)cc1)c1ccco1	2%	-4	-51	5.1	16
O=C1N(Cc2cccc(Cl)c2)C[C@@H]2C[C@@H](c3cccn3-c3nccs3)N3CCC[C@@]123	0%	-3	.	0.5	0
O=C(Nc1ccccc1Cl)c1cc2ccccc2o/c1=N\O	.	32	.	-6.2	.
Cc1ccc(Cn2c([N+](=O)[O-])cnc2C)cc1	50%	5	-7	0.2	3
O=[N+]([O-])c1ccc(O)c2cccnc12	-2%	1	.	.	3
CCN(CC)S(=O)(=O)c1cc(C(=O)O)c(Cl)cc1Cl	0%	-4	-19	-2.2	3
O=C(/C=C/c1cccc(F)c1)N1CCc2ccccc21	-7%	5	-23	-2.5	4
Fc1ccc(-c2cc(C(F)(F)F)nc(-n3cncn3)n2)cc1	-5%	-8	-31	1.0	9
COc1ccc(NC(=O)C2CCN(S(=O)(=O)c3c(C)noc3/C=C/N(C)C)CC2)cc1	.	-4	.	-3.1	.
CC(Oc1ccc(Cl)cc1Cl)c1nc(-c2ccc(NC(=O)c3ccco3)cc2)no1 (stereo unspecified)	14%	17	5	2.4	-14
O=C(CSc1ncnc2ccccc12)Nc1cccc(S(=O)(=O)N2CCCC2)c1	-2%	-5	.	0.5	5
CCOc1ccc(NC(=O)CN(C)S(=O)(=O)c2ccc3c(c2)CCC(=O)N3)cc1	4%	-9	.	-1.4	.
O=C(Nc1ccccn1)c1ccc2nc(-c3ccccc3)c(-c3ccccc3)nc2c1	0%	4	.	0.5	1
CCCn1c(C(O)c2ccc3c(c2)OCO3)nc2ccccc21 (stereo unspecified)	-1%	4	-24	1.4	-3	Arbovirus anti repeat=0
Cc1ccc(C)c(C(=O)C(C)OC(=O)c2cccn2C)c1 (stereo unspecified)	12%	-2	-10	-2.8	-4

Random excerpt: two records from the list.
SMILES	Mtb growth	Mtb bLac sens	YopH inh	RecA intein inh	Arbovirus anti	others
Cc1ccc(CNC2CCCCC2)s1	.	2	.	0.3	.
CC(=O)NN1C(=O)/C(=C\c2ccc(Br)o2)SC1=S	-3%	-6	-41	-1.2	5

Carrying on:
SMILES	Mtb growth	Mtb bLac sens	YopH inh	RecA intein inh	Arbovirus anti	others
COc1cc(OC)cc(-c2cc(N)n(S(=O)(=O)Cc3ccccc3)n2)c1	7%	-5	-42	1.3	10
COCCn1c(Cc2cccn2C)nnc1SCC(=O)Nc1nccs1	4%	1	.	2.2	8
CN1C(=O)C(=C2CCCCCC2)SC1=S	-12%	-1	-39	-0.5	10
Cc1onc(-c2c(F)cccc2Cl)c1C(=O)OCC(=O)NC(=O)NCC(C)C	-6%	1	.	-0.7	-1
